Assay outcomes (PubChem)
MLL AF4-AF9 inh: inhibitors of human MLL-AF4/AF9 interaction; P42568; AlphaScreen, biotin-AF4 peptide binding to FLAG-AF9; inhibition, % at 10 µM; actives 0.47% (n = 350,000); AID 651704;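 active means every replicate reaching a set inhibition limit, whatever the replicate mean, cut at about 25% in these data; inconclusive means mean inhibition reaches that limit but some replicates miss it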;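 further: 0% = plate neutral control median and 100% = total signal loss; the record names both 10 and 1 µM as test concentration; the first replicate is given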
Target sequence (P42568 whole entry, looked up): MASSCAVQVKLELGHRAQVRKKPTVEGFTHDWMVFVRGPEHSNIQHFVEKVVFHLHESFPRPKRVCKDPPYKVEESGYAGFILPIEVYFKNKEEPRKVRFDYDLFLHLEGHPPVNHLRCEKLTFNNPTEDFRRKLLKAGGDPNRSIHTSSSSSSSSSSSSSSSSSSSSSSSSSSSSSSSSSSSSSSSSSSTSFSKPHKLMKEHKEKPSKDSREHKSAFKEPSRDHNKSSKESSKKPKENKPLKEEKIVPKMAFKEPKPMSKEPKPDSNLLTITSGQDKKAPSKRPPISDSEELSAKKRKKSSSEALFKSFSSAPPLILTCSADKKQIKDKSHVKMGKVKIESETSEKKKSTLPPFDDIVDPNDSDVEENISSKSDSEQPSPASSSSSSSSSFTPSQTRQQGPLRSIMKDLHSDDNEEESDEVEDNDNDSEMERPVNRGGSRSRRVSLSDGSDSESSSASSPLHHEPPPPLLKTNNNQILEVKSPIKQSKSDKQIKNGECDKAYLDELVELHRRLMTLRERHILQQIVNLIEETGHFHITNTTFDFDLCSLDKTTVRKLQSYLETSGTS
UCH37 DUB inh: inhibitors of human deubiquitinating enzyme UCH37; Q9Y5K5; purified proteasome/UCH37, Ub-AMC cleavage fluorescence; inhibition, % (concentration not given with the values); AID 588478; actives 0.33% (n = 330,000);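 active means mean of two replicates above 20%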;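 further: 0% = compound-free wells with enzyme and 100% = wells lacking proteasome; stock transfer was 100 nL into about 20 µL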
Target sequence (Q9Y5K5 whole entry, looked up): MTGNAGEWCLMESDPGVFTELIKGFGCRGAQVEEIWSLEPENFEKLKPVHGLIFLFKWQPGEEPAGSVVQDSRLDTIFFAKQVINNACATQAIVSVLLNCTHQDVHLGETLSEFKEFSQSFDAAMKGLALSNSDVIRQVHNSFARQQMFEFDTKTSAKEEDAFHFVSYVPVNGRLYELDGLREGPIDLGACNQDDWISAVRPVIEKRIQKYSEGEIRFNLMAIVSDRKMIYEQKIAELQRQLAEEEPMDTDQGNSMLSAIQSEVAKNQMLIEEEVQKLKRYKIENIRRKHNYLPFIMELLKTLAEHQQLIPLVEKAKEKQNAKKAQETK
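Reagent: Ub-AMC substrate; assay system: Proteasome-associated human UCH37 deubiquitinase; controls: no-proteasome and no-compound wells; read-out: % inhibition of Ub-AMC cleavage fluorescence; timing: 30 min preincubation with enzyme, 25 min cleavage at room temperature; signal: AMC fluorescence from Ub-AMC cleavage, excitation 355 nm, emission 460 nm; buffer or medium: Tris-HCl pH 7.4 plus ovalbumin, ATP-MgCl2, DTT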
rRNA inh HTS: inhibits bacterial ribosomal RNA function over humanized ribosomes; GFP signal change (wild-type ribosome), % (no concentration beside the values); E. coli WT GFP vs humanized-ribosome RFP mutants, fluorescence, 24 h; active compounds read low; DMSO median 0, no signal -100; actives 1.6% (n = 350,000); AID 720706;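 active means significant combined selectivity score with lowered wild-type GFP, culture density cut under 30%, mutant RFP and density less affected; inactive means any of these conditions unmet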; further: one replicate is shown; some compounds called inactive have numbers as strong as hits
E coli growth: E. coli growth inhibition; OD600 absorbance (no concentration beside the values); actives 0.21% (n = 330,000); Escherichia coli growth, OD600, 23 h; active compounds read low; AID 1053175;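 active means OD600 absorbance below the run mean of sample wells minus 3.6 SD, in any replicate, cut at about 0.56 in these data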;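 further: stock transfer was 300 nL into about 60 µL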
T cruzi inh: T. cruzi replication inhibition. T. cruzi beta-gal in NIH3T3, luminescence, 90 h. actives 1.4% (n = 300,000). inhibition, % (test concentration not listed);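 active means mean inhibition across valid replicates above about 55%, limit read from the data; inconclusive means mean below that limit but half or more replicates reach it; inactive means mean below it, under half of replicates reach it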;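 further: signal also drops with host cell toxicity which is not excluded here; 0% = plate median of DMSO wells and 100% = zero luminescence signal; higher percent means less beta-gal luminescence so fewer parasites; stock transfer was 50 nL into about 50 µL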
Beta cell apopt: beta cell apoptosis inhibition | INS-1E cytokine-induced death, ATP luminescence, 48 h; percent of positive-control rescue, neutral wells zero | protection from apoptosis, % (no concentration beside the values) | actives 0.8% (n = 300,000) | AID 435005;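 active means all replicates at 75% or more, or half of them and the mean; inconclusive means half reach 75% but not the mean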;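 further: 0% = cytokine-treated negative control wells and 100% = positive control rescue; higher means more ATP so stronger rescue from cytokine killing; wells of about 40 µL received 100 nL stock; the first replicate is given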
FGF22 binding: shifts melting point of recombinant human FGF22 | Q9HCT0 | recombinant FGF22 thermal shift, SYPRO orange fluorescence; percent of sucrose octasulfate shift, DMSO zero | calls only at 9.99 µM | actives 1.5% (n = 340,000) | AID 651658;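 active means melting point raised past a set limit in the mean and every replicate; inconclusive means no clear call; three in four hits are not shown here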
Target sequence (Q9HCT0 whole entry, looked up): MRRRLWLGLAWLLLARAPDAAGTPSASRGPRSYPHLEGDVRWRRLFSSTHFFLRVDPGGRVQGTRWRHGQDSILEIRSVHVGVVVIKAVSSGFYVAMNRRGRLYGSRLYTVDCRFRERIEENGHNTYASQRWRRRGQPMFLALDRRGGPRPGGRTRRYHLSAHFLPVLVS
A1 inh: inhibitors of the anti-apoptotic protein A1, read as caspase activation. MEF A1-2A-BIM cells, Caspase-Glo 3/7 luminescence, 3 h; percent of clofoctol response, vehicle zero. caspase activation, % (no concentration beside the values). actives 0.066% (n = 330,000);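 active means over half of replicate activation scores above 10%, or exactly half above 10 with the replicate mean above 10; inconclusive means replicate mean below 10 yet half the replicates above 10; inactive means over half of replicates below 10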;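 further: wells of about 30 µL received 50 nL stock; many hits fall short of the cut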
rRNA inh HTS OD600: further read-out of rRNA inh HTS, marked with its call; OD600 change, %; measured here: OD600 growth;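 optical density of the mix in the first replicate; 0 = DMSO median and -100 = no signal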
rRNA inh HTS RFP: recorded beside rRNA inh HTS, whose call it bears; RFP signal change, %; measured here: RFP humanized mutant strains;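 first replicate; 0 = DMSO median and -100 = no signal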
Numbers without * were called inactive; i = inactive; u = inconclusive; x = no result given; & = joins results of further samples. A portion of the library; rates above refer to the full screens.

Each structure is followed by: MLL AF4-AF9 inh, rRNA inh HTS OD600, E coli growth, rRNA inh HTS, rRNA inh HTS RFP, Beta cell apopt, UCH37 DUB inh, FGF22 binding, T cruzi inh, A1 inh
- COc1cc(NC(=O)c2ccccc2)c(OC)cc1NC(=O)Cc1ccc(Br)cc1
    1.2, 9, x, 10, 0.4, x, x, i, 3, 12*
- COc1cc(OC)c(C2CC(=O)N3CN(c4ccccc4)CSC3=C2C#N)cc1OC (stereo not given)
    x, x, 0.73, x, x, 7, 4.9, x, 5, 0.0
- CC(C)CC(C(=O)NCc1ccccn1)N1C(=O)c2ccccc2C1=O (stereo not given)
    x, x, 0.73, x, x, x, 0.0, x, -12, 0.4
- O=C(CNS(=O)(=O)c1cccs1)NCc1ccc(F)cc1
    11, 17, 0.69, 9, -0.6, -8, 1.1, i, 0, -0.7
- COc1ccccc1-c1nc(SCc2ccccn2)n[nH]1
    x, x, 0.7, x, x, -7, 3.8, x, 4, 0.3
- CCN(C(=O)c1cc2c(=O)n3ccccc3nc2n1C)C1CCCCC1
    -6.8, -9, 0.71, -11, 4.8, -2, i, i, 9, -0.1
- CC(C)(C)C(=O)NNC(=O)c1cnccn1
    1.3, 4, 0.72, 8, 5.2, -1, 3.7, i, 4, 0.2
- Nc1nonc1-c1noc(CCCOc2ccc(Cl)cc2Cl)n1
    x, x, 0.72, x, x, 2, 5.5, x, -4, -0.7
- O=C(CN1C(=O)c2ccccc2C1=O)Nc1ccccc1N1CCOCC1
    2.0, x, 0.62, x, x, 1, 1.7, i, x, 0.0
- COC(CNC(=O)C1CCCN1C(=O)OCc1ccccc1)OC (stereo not given)
    -2.7, 1, 0.7, 9, 8.8, -8, 2.7, i, -8, 0.6
- Cc1ccc(C)c(-c2csc(NC(=O)c3c(C)noc3C)n2)c1
    -1.3, 2, 0.67, 1, -2.0, 7, 0.2, i, x, 0.0
- COc1ccc([C@@H]2[C@@H]3C(=O)N(C(C)(C)C)C(=O)[C@@H]3[C@]3(C)C(=O)N(c4cccc(C)c4)C(=O)N23)cc1
    -13, 9, x, -17, 23, -12, 2.3, i, -12, u
- CC(C(=O)Nc1ccc(F)c(F)c1F)N(C)Cc1cccs1 (stereo not given)
    -0.6, -9, 0.69, -10, 0.8, -6, 0.6, i, -11, -0.6
- COc1ccc(Cl)cc1C(=O)NNC(=O)COC(=O)c1ccc(Br)o1
    -3.4, -4, 0.65, -2, -2.6, -1, -0.9, i, x, -1.5
- COc1cccc(C(C(=O)NC2CCCC2)N(Cc2ccco2)C(=O)c2ccco2)c1OC (stereo not given)
    x, x, 0.63, x, x, -3, 0.6, x, 6, 1.1
- COc1ccccc1N1CCN(S(=O)(=O)c2cccs2)CC1
    x, x, 0.7, x, x, -4, -0.5, x, 1, 0.5
- Cc1cc(OC(F)F)ccc1NC(=S)NCCc1ccccc1
    1.6, -12, 0.7, -14, -1.3, 3, 5.0, i, -14, 1.3
- Cc1ccc(-n2c(C)nnc2SCC(=O)Nc2ccccc2)cc1
    x, x, 0.75, x, x, -5, 2.2, x, -1, 1.1
- O=C(Nc1cc(S(=O)(=O)N2CCOCC2)ccc1N1CCOCC1)c1ccccc1F
    -1.8, 8, 0.65, 6, -4.5, 4, 4.1, i, x, -0.1
- Cc1ccc(-c2[nH]nc3c2C(c2ccsc2)C(C#N)=C(N)O3)cc1 (stereo not given)
    x, -20, 0.75, -1, -0.7, -8, 3.8, x, -7, 0.4
- CN1c2cccc3cccc(c23)N(C)C1(C)C
    x, x, 0.68, x, x, 4, -320, x, 20, -0.8
- Cc1ccc(Cl)cc1NC(=O)CC1NCCNC1=O (stereo not given)
    x, x, 0.68, x, x, -3, 0.4, x, -6, 0.7
- CCO[C@@H]1OC(C(N)=O)=C[C@H](c2cn(C(C)=O)c3ccccc23)[C@H]1CCCO
    0.1&-2.2, 16, x, 1, 13, 0, 2.5, i, -13, 0.3
- COc1ccc(C(CNC(=O)CNC(=O)c2ccc(F)cc2)N2CCCC2)cc1 (stereo not given)
    3.8, x, 0.67, x, x, -7, 3.7, i, x, -0.2
- C[C@H]1CN([C@@H](C)CO)C(=O)Cc2cc(NS(=O)(=O)c3cn(C)cn3)ccc2O[C@@H]1CN(C)C(=O)Nc1ccc(F)cc1
    -3.1, 13, x, 1, -2.4, -5, 0.5, i, x, 1.9
- CS(=O)(=O)NCCOc1ccc(S(=O)(=O)N2CCCc3ccccc32)cc1
    x, x, 0.66, x, x, 6, 2.4, x, 9, 0.1
- CCCCOCCCNC(=O)c1cccc(OC)c1
    x, x, 0.67, x, x, -6, 5.5, x, -8, 0.1
- CC(=O)NC1=NN(C(C)=O)C(C)(c2ccccc2)S1 (stereo not given)
    1.0, -2, 0.64, 5, -0.9, x, -0.1, i, -28, 0.0
- O=C(O)c1ccc(N2C(=O)CC(Cc3ccccc3)C2=O)cc1 (stereo not given)
    x, x, 0.68, x, x, -2, 3.2, x, 3, 0.0
- CC(C)c1ccc(NC(=O)C(c2ccccc2)N2CCN(C=O)CC2)cc1 (stereo not given)
    x, x, 0.7, x, x, 0, 3.9, x, -3, 0.5

Of the compounds above, 2 have a furan ring, fused or not:
Each structure is followed by: MLL AF4-AF9 inh, rRNA inh HTS OD600, E coli growth, rRNA inh HTS, rRNA inh HTS RFP, Beta cell apopt, UCH37 DUB inh, FGF22 binding, T cruzi inh, A1 inh
- COc1ccc(Cl)cc1C(=O)NNC(=O)COC(=O)c1ccc(Br)o1
    -3.4, -4, 0.65, -2, -2.6, -1, -0.9, i, x, -1.5
- COc1cccc(C(C(=O)NC2CCCC2)N(Cc2ccco2)C(=O)c2ccco2)c1OC (stereo not given)
    x, x, 0.63, x, x, -3, 0.6, x, 6, 1.1

Next entries.
Each structure is followed by: MLL AF4-AF9 inh, rRNA inh HTS OD600, E coli growth, rRNA inh HTS, rRNA inh HTS RFP, Beta cell apopt, UCH37 DUB inh, FGF22 binding, T cruzi inh, A1 inh
- Cc1cc(NC(=O)CCN2C(=O)/C(=C\c3ccccc3Cl)SC2=S)no1
    -0.1, 1, 0.68, 0, 5.2, 0, 9.9, i, 2, 0.2
- Cc1ncsc1CCSc1nc2ccccc2c(=O)n1C
    -5.2, -8, 0.65, -6, 0.7, -5, 2.1, x, 8, 0.1
- CC(C)=CCCC1(C)C=Cc2c(ccc3c2[nH]c2cc(O)c(C)cc23)O1 (stereo not given)
    27*, x, 0.66, x, x, 14, 4.6, i, -5, 0.8
- CCC1CCCCN1CCCNC(=O)C1CCC(Cn2c(=O)[nH]c3ccccc3c2=O)CC1 (stereo not given)
    x, 10, 0.72, -3, -1.4, -3, 2.9, x, -22, 0.3
- Cc1ccc(NC(=O)CSc2ncc(-c3ccccc3)n2C(=O)c2ccccc2)cc1
    x, x, 0.7, x, x, -5, 4.9, x, -32, -0.2
- CC(CNc1ccccc1O)C(=O)O (stereo not given)
    -6.5, -3, 0.68, -8, 8.6, x, 8.3, i, 0, 0.4
- O=C(CC1C(=O)NCCN1Cc1ccc(-c2ccccc2)cc1)NCCOc1cccnc1 (stereo not given)
    -0.1, -4, 0.69, 0, 2.6, -4, -0.5, i, -10, 0.5
- COC(=O)c1c(NC(=O)CCNCc2ccco2)sc2c1CCC2
    12, -15, 0.64, -11, 3.6, -14, 2.0, i, 14, -0.6
- CNc1c([N+](=O)[O-])cnn1-c1ccc(F)cc1
    1.7, -1, 0.65, 8, -2.2, -1, 7.4, i, -7, -0.8
- Cc1cc(C)c(OCC(=O)Nc2ccc(N3CCOCC3)cc2)c(Br)c1
    -0.8, -8, x, 2, -0.6, x, x, i, 14, -0.4
- O=C(Cn1nc(-c2ccc3c(c2)OCCO3)ccc1=O)Nc1ccc(N2CCOCC2)cc1
    x, x, 0.67, x, x, 0, 0.9, x, 5, -1.2
- CCC(C(=O)Nc1c2c(nn1C(C)(C)C)CS(=O)(=O)C2)c1ccccc1 (stereo not given)
    -2.1, 14, 0.7, 15, 3.1, -5, 4.5, i, -5, 0.1
- C=CCN1C(=O)[C@]2(c3ccccc31)C1CCCC=C1C(C#N)=C(N)C2(C#N)C#N (stereo not given in full)
    x, x, 0.74, x, x, -2, 1.1, x, 22, 0.4
- CCC(=O)N1CCc2cc(S(=O)(=O)CCC(=O)Nc3cccc(C)n3)ccc21
    x, x, 0.72, x, x, -2, -0.5, x, -6, 0.1
- Cc1nnc(SCC(=O)NNC(=O)c2ccc(Br)cc2)n1C
    -0.9, 7, 0.66, 9, 1.9, x, -0.6, i, -23, 0.0
- N=C(N)SCc1nc2ccccc2c(=O)n1-c1ccccc1
    3.5&5.8, 0, 0.73&0.68, 4, -2.9, -3&2, 0.3&-7.3, i, -34, 0.5&-0.6
- CCn1cc(C(=O)NCc2ccc(OC)cc2)c(=O)c2ccc(C)nc21
    1.2, 8, 0.62, 4, -0.1, x, 2.7, i, -19, -0.1
- c1ccc(COCCCn2cc(-c3ccccc3)nn2)cc1
    -19, -20, 0.7, -18, -6.2, 5, 1.7, i, 1, -0.9
- Cc1cc(OC(C)C(=O)NCCCN2CCOCC2)c2c(C)cc(=O)oc2c1 (stereo not given)
    -2.2, 5, 0.69, 0, -1.0, -2, -87, i, -9, -0.6
- Cc1ccccc1-n1c(=O)cc(N2CCC3(CC2)OCCO3)[nH]c1=O
    -27, 12, 0.64, 14, 6.5, 0, 0.4, i, -3, 0.2
- CCN(CC)S(=O)(=O)c1ccc(C)c(NC(=S)NNC(=O)C2CC2)c1
    x, x, 0.66, x, x, -5, 2.8, x, -4, 0.8
- CC(C)(C)[C@H]1COC(=O)CC/C=C\C[C@@H](CC(=O)N[C@H](CO)Cc2ccccc2)C(=O)N1
    -1.5, 13, x, 4, 3.8, 0, 0.6, i, x, 0.0
- CCCCC(CC)CNC(=O)/C=C/c1ccc(F)cc1 (stereo not given)
    x, x, 0.66, x, x, 9, 0.4, x, 23, -1.0
- Cc1nc2c(-c3ccccc3)c(C)nn2c(C)c1CCC(=O)O
    -8.6, -17, 0.7, -12, -2.3, -3, 5.3, i, -5, 0.3
- O=c1cc(CSc2nnc(-c3cccs3)n2Cc2ccccc2)nc2sc3ccccc3n12
    x, x, 0.75, x, x, 68, 3.4, x, 13, -0.1
- COC(=O)[C@H](C)NC(=O)Nc1cccc(C)c1
    x, x, 0.77, x, x, 6, 2.1, x, -10, 0.2
- Cc1ccc(C(=O)NCCNc2ccc([N+](=O)[O-])cc2C(F)(F)F)cc1
    x, x, 0.66, x, x, 0, 5.9, x, 11, 0.3
- CCOC(=O)c1ccccc1NC(=O)Cn1c(-c2nonc2N)nc2ccccc21
    x, x, 0.68, x, x, 28, -0.8, x, 28, 0.3
- CC1CCC(NCCNC(=O)c2ccco2)CC1 (stereo not given)
    -0.2, 20, 0.68, 5, -1.2, 1, 4.1, i, -19, 0.3
- COc1ccc(S(=O)(=O)NNC(=O)Nc2ccc(F)cc2F)c(OC)c1
    -1.6, 2, 0.74, 3, 1.3, -10, 0.9, i, 7, -0.3
